Sfp inh – qHTS Assay for Inhibitors of Bacillus subtilis Sfp phosphopantetheinyl transferase (PPTase) | 4'-phosphopantetheinyl transferase ffp (Bacillus subtilis), Q9F4F7 | Biochemical Sfp PPTase activity, qHTS | Potency, µM, for the others: max response, negative = inhibition, usual class: inhibitors | hit rate 3.5% among 310,000 | AID 1490, 2009; active = well fitted inhibition curve with a large enough effect; inconclusive = small, poorly fitted or top-dose-only effect, or another doubt; inactive = no such curve, though single readings can be large or run the other way;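 also: the enzyme is Sfp with the accession as filed and its product quenches rhodamine fluorescence; potency is read from the fitted curve at half-maximal effect; 0% = enzyme reaction without inhibitor and -100% = no enzyme wells; top concentration of the series not given in the record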
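Reaction rates are the 30-min fluorescence difference (ex 525, em 598 nm) in wells containing 15 nM Sfp, 5 uM rhodamine-CoA and 12.5 uM BHQ-2-YbbR at pH 7.6 with 10 mM MgCl2.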
CtBP-E1A blk – qHTS Assay for Inhibitors of the CtBP/E1A Interaction; AlphaScreen GST-E1A/His-CtBP binding, 1536-well; stronger effect = lower value; control for the full effect not named in the record; activity change, % (no concentration beside the values); hit rate 0.49% among 340,000; AID 651724, 2012; CtBP / adenovirus E1A interaction (AlphaScreen); in the data active means activity change below about -65%; inconclusive means about -30% to -65%; inactive means above about -30%; also: % is scaled to controls: 0 for no effect and ±100 for the full control effect; compound concentration not given in the record
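Homogeneous bead-based format: GST-tagged E1A captured on glutathione donor beads, His-tagged CtBP on nickel acceptor beads; compounds precede bead addition by 2 h at 37 °C.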
gsp antagonist – qHTS for Antagonists of gsp, the Etiologic Mutation Responsible for Fibrous Dysplasia/McCune-Albright Syndrome: qHTS | gsp-mutant cells, cAMP HTRF, 30 min; control for the full effect not named in the record | Potency, µM (highest dose often 76.9 µM), for inactives: at the highest dose activity change, negative = inhibition, most hits filed as inhibitors | hit rate 0.4% among 340,000 | AID 624288, 2012; active = falling curve of any shape with a large fitted effect; inconclusive = falling curve, mostly with a smaller effect; inactive = flat or rising curve; cell line not stated here;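 also: intracellular cAMP measured with PDE inhibitor Ro 20-1724 present during compound exposure; potency is read from the fitted curve at half-maximal effect; % is scaled to controls: 0 for no effect and ±100 for the full control effect; nearly all actives have a fitted effect of over 65% in size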
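Cells, 2000/well, grown 16–24 h in DMEM 10% FBS with 0.5 mg/ml G418, then compounds plus […] (300 uM addition stock), 30 min at 37C. cAMP read by HTRF (cAMP-d2 and anti-cAMP antibody-K in lysis buffer) after 30 min RT.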
Menin MLL FP FL – qHTS Assay for Inhibitors Targeting the Menin-MLL Interaction in MLL Related Leukemias: Competition With Fluorescein Labeled MLL-derived Peptide; AID 1766, 2009; Fluorescence polarization, fluorescein-MLL peptide displacement from menin; FP activity change, % at 61.4 µM; 290,000 tested, under 10 active; inconclusive = falling polarisation curve, or a change in total fluorescence; inactive = total fluorescence flat and polarisation flat or rising; no compound was filed as active; the % refers to the polarisation; negative = inhibition;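 also: % of control where 0% means no effect; inhibitors lower the polarisation; unlabelled MLL peptide was the positive control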
gsp agonist – qHTS for Agonist of gsp, the Etiologic Mutation Responsible for Fibrous Dysplasia/McCune-Albright Syndrome: qHTS; gsp mutant cells, cAMP HTRF, 30 min; control for the full effect not named in the record; Potency, µM (titrated, usually from 76.9 µM), without a hit: at the top dose activation (cAMP increase), actives largely listed as activators; hit rate 0.13% among 340,000; active = well fitted activation curve with a large enough effect; inconclusive = small, poorly fitted or top-dose-only effect, or another doubt; inactive = no such curve, though single readings can be large or run the other way; cell line not stated here;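 also: phosphodiesterase inhibitor Ro 20-1724 added with compounds to block cAMP breakdown; potency is read from the fitted curve at half-maximal effect; nearly all actives have a fitted effect of over 60% in size; about a fifth of the inactives were tested at one dose only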
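Cells in DMEM/10% FBS with G418 were pretreated with compounds in DMSO plus […] (300 uM stock) for 30 min at 37C. cAMP was measured by HTRF (cAMP-d2 plus anti-cAMP antibody-K) after 30 min at room temperature.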
ClpP mod – qHTS Assay for Activators of ClpP; ATP-dependent Clp protease proteolytic subunit (Bacillus subtilis (strain 168)), P80244; purified B. subtilis ClpP, FRET peptide cleavage, 20 min; Potency, µM (doses to about 57.5 µM), for inactives: at the highest dose activity change, negative = active; hit rate 1.9% among 340,000; AID 651965, 2013; active = well fitted falling curve with a large enough effect; inconclusive = small, poorly fitted or top-dose-only effect; inactive = no such curve, though single readings can be large or run the other way; also: potency is read from the fitted curve at half-maximal effect; the source files actives as falling curves though it sought activators and does not explain the sign; nearly all actives have a fitted effect of over 65% in size; many hits overshoot -100%
Target sequence (P80244 whole entry, looked up): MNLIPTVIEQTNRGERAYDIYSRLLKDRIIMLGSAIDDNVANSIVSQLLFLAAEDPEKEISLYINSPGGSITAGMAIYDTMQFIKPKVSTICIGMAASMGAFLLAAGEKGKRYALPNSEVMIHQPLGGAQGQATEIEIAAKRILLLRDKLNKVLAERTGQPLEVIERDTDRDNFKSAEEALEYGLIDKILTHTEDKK
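FRET quenching reversal measured ClpP activation: 10 microg/mL B. subtilis ClpP at pH 8 with the FRET-FV decapeptide, read at 430 nm after 320 nm excitation. The 20-min minus 0-min signal was scaled between DMSO/no-enzyme wells and ADEP (5.8 microM final).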
TRPV1 potentiator – HTS Assay for Compounds that Act as Potentiators of the Vanilloid Receptor 1 | Transient receptor potential cation channel subfamily V member 1 (Homo sapiens), Q8NER1 | TRPV1-expressing cells, Fluo-8 calcium influx, capsaicin EC20 potentiation; host cell line not named in the record; control for the full effect not named in the record | potentiation, % at 8.33 µM | hit rate 0.02% among 320,000; active means potentiation above 80%; inconclusive means 30% to 80%; inactive means below 30%; also: 0% is about no effect
Target sequence (Q8NER1 whole entry, looked up): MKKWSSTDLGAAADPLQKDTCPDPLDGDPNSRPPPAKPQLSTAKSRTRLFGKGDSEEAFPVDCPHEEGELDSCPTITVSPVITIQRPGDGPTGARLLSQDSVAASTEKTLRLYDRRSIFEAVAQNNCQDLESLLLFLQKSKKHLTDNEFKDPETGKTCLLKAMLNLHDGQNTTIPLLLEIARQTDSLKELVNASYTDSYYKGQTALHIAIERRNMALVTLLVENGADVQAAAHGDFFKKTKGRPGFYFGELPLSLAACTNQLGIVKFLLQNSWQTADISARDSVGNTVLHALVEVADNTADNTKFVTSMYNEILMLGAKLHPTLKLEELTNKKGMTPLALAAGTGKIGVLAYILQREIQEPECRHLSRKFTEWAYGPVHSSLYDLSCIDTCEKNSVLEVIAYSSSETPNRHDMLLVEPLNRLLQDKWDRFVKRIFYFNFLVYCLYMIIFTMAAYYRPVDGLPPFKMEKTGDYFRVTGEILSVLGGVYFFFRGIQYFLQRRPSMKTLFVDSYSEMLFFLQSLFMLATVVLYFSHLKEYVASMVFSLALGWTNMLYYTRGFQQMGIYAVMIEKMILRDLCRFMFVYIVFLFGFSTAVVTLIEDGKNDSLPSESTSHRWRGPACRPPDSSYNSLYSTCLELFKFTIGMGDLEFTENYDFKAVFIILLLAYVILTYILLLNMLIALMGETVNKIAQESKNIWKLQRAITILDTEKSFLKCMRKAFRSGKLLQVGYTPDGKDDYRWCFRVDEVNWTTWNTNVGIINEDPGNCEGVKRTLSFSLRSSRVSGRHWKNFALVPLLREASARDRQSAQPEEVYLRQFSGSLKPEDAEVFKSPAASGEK
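Fluo-8 calcium influx in TRPV1-expressing cells, kinetic read (ex 480/em 520 nm). Compound added and read 3 min for agonist activity, followed by capsaicin at EC20 final and 2 min further read for enhancement.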
* hit, by the source's call; ? = inconclusive; nt = not tested or not shown; & = joins results of further samples; [ ] = another dose, or the depositor's remark.

SMILES,Sfp inh,gsp antagonist,CtBP-E1A blk,Menin MLL FP FL,gsp agonist,TRPV1 potentiator,ClpP mod
CCOc1ccc(Br)cc1C1C(C(=O)OC)=C(N)Oc2cc(N(C)C)ccc21 (stereo not given),4%,-6%,-26,2.0,6%,-8,-0.1%
O=C(N/N=C/c1cc(Br)ccc1O)Nc1ccccc1,10%,1%,-13,4.4,-13%[15.4 µM],-1,-1.9%
CCN(CC)C(=O)N1CCN(C(=O)c2ccc(C)cn2)CC1,8%,-3%,4,17,-22%,4,1.4%
CSc1nnc(C)c(=O)n1COC(=O)COc1ccccc1,3%,11%,6,3.7,-49%[inhibitor],-2,-0.7%
COc1ccc(-n2c(Cc3ccccc3)nnc2SCC(=O)N2CCCc3ccccc32)cc1,-9%,-15%,-13,11,5%,-9,0.6%
Cc1cccc(N2CCN(C(=O)Cn3c(=O)[nH]c4ccsc4c3=O)CC2C)c1 (stereo not given),8%,-14%,2,-0.9,-43%[inhibitor],-22,-1.0%
O=C1c2ccc(Oc3ccc([N+](=O)[O-])cc3)cc2C(=O)N1CCO,17%,7%,10,-2.7,-7%[15.4 µM],-9,0.5%
COc1ccc(S(=O)(=O)Nc2cc(C)ccn2)cc1,3%,11%,40,2.1,1%,-2,14µM*
COCC1CCN(Cc2cn[nH]c2-c2ccc(OC)cc2F)C1 (stereo not given),0%,-3%,-5,51[activator],-7%,3,nt
O=C(Nc1ccccc1C(=O)N/N=C/c1ccco1)c1ccccc1,-3%,-8%,-17,2.1,6%[15.4 µM],-3,-2.5%
CC1CCCCC1NC(=O)CCNC(=O)N1CC(=O)Nc2ccccc21 (stereo not given),1%,2%,5,0.4,-19%,6,-0.6%
COc1cc(/C=C/C(=O)OCC(=O)N2CCCC2)cc(OC)c1OC,nt,1%,nt,nt,-2%,-4,-15%
O=C(c1ccco1)N1CCN(C(=O)c2cc3c(s2)-c2ccccc2OC3)CC1,50µM*,-4%,7,2.7,?,-5,4.5%
O=C(CCn1c(=O)oc2ccccc21)NCCN1CCOCC1,8%,11%,2,-1.3,-35%[inhibitor],-18,-0.2%
CCOC(=O)C1CCCN(c2cc(=O)n(C3CCCCC3)c(=O)[nH]2)C1 (stereo not given),11%,-10%,nt,1.2,2%,-6,-0.8%
O=C(Nc1ccnc(-c2ccncc2)n1)c1ccc(F)cc1,11%,14%,nt,1.2,14%,28,-2.0%
COC(=O)c1sc(SC)c(S(=O)(=O)C(C)C)c1N/N=C(\C#N)C(=O)c1ccccc1,14%,-16%,-7,1.1,6%,?,nt
COc1ccc(OCCCCN2CCC(C)CC2)cc1,-10%,11%,-4,1.7,-34%[inhibitor],9,-0.1%
CCCc1cc2c(=O)n(NC(=O)c3nn(C)cc3[N+](=O)[O-])c(C)nc2s1,-13%,4%,-13,5.7,-44%[inhibitor],4,-2.3%
COC(=O)c1cc(OC)c(OC)cc1NC(=O)C(C)c1ccc([N+](=O)[O-])cc1 (stereo not given),9%,-4%,nt,0.1,-59%[inhibitor],-10,2.5%
COc1ccc(OCCn2nnc(-c3ccc(Cl)cc3)n2)cc1,7%,9%,9,1.8,11%,-3,4.1%
CN(C)c1ccc(/C=N/NC(=O)c2cnc3ccccc3c2)cc1,10%,0%,nt,?,-12%,5,-0.2%
COc1ccc(CNS(=O)(=O)CCNCc2ccccc2OC)cc1,nt,6%,2,nt,nt,nt,-0.5%
O=C(c1nc2ccccn2c1CNCCCn1cccn1)N1CCCC1,19%,4%,2,0.8,13%,8,-9.3%
O=C(COC(=O)c1ccccc1NC(=O)c1ccco1)NC1CCCCC1,-20%,?,-1,5.5,-11%,-16,103%
CN(C)c1nc(SCCOC(=O)c2ccccc2)nc(N(C)C)n1,-25%,-17%,32,-1.3,-5%,16,-2.6%
CC(C)c1ccc(NC(=O)NCc2cccnc2)cc1,5%,8%,8,4.4,0%[15.4 µM],-4,0.6%
CC(=O)CCc1oc2ccc(C)cc2c1Cc1ccccc1,-12%,-21%,-6,1.5,0%[15.4 µM],-6,-2.7%
Cc1ccc(S(=O)(=O)c2nc(S(C)(=O)=O)sc2N(C)C)cc1,15%,9%,7,7.2,-6%,1,0.0%
O=C(c1n[nH]c(=O)c2ccccc12)N1CCN(S(=O)(=O)c2ccccc2Cl)CC1,nt,-3%,nt,nt,-2%,3,-1.7%
O=C(c1cccc(-c2ccc(O)cc2)c1)N1CCN(c2ccc(F)cc2)CC1,22%,-42%,nt,0.0,-1%[15.4 µM],-14,nt
Cc1ccc(O)c(C(=O)c2cc(C#N)c(=O)n(CC3CCCO3)c2)c1 (stereo not given),-4%,-19%,4,2.8,-2%,4,18%

Complete entries, quoted from the list. Order of screens: Sfp inh	gsp antagonist	CtBP-E1A blk	Menin MLL FP FL	gsp agonist	TRPV1 potentiator	ClpP mod
`O=C(COC(=O)c1ccccc1NC(=O)c1ccco1)NC1CCCCC1` in the list: -20%	?	-1	5.5	-11%	-16	103%
`O=C(c1n[nH]c(=O)c2ccccc12)N1CCN(S(=O)(=O)c2ccccc2Cl)CC1` in the list: nt	-3%	nt	nt	-2%	3	-1.7%
`O=C(c1cccc(-c2ccc(O)cc2)c1)N1CCN(c2ccc(F)cc2)CC1` in the list: 22%	-42%	nt	0.0	-1%[15.4 µM]	-14	nt
`Cc1ccc(O)c(C(=O)c2cc(C#N)c(=O)n(CC3CCCO3)c2)c1` (stereo not given) in the list: -4%	-19%	4	2.8	-2%	4	18%

(list continues)
SMILES,Sfp inh,gsp antagonist,CtBP-E1A blk,Menin MLL FP FL,gsp agonist,TRPV1 potentiator,ClpP mod
CC(C)NC(=O)C1CC=CCC1C(=O)O (stereo not given),11%,11%,0,nt,11%,?,1.5%
N#CCCN(C(=O)COC(=O)Cc1ccc(Br)cc1)c1ccccc1,10%,4%,-18,-0.8,-19%,-1,nt
O=C(/C=C/c1ccccc1)OCC(=O)N1CCN(c2ccccc2)CC1,nt,5%,1,nt,14%,-1,1.3%
Cc1nnc(SCC(=O)NCc2ccc3c(c2)OCO3)n1C,12%,3%,10,-3.1,-2%,18,nt
C[C@H](CO)N1C[C@H](C)[C@@H](CN(C)S(=O)(=O)c2ccc(F)cc2)Oc2ccc(NC(=O)CCC(F)(F)F)cc2C1=O,nt,-4%,-3,nt,-12%,nt,-0.3%
O=S(=O)(Nc1ccc2c(c1)nc1n2CCOC1)c1ccc(Cl)cc1,6%,-14%,7,0.5,-20%,-2,1.5%
Cc1c(NC(=O)COC(=O)/C=C/c2cccc(F)c2)c(=O)n(-c2ccccc2)n1C,nt,nt,1,nt,-93%[inhibitor],nt,2.4%
COc1ccc(NC(=O)C(C)NS(=O)(=O)c2ccccc2)cc1Cl (stereo not given),18%,2%,5,-0.3,9%,-10,0.3%
CCCCn1c(N)c(N(CC(C)C)C(=O)CC(NC(=O)c2ccccc2Cl)c2ccccc2)c(=O)[nH]c1=O (stereo not given),nt,nt,-1,nt,-132%[inhibitor],nt,-4.5%
COC(=O)C1=C(C)N(c2cccc3ccccc23)C(=O)C1,7%,-10%,-1,4.1,-1%,-4,-6.0%
Cc1ccc(-c2nnn(CC(=O)NCCc3ccc4c(c3)OCO4)n2)cc1,-2%,17%,2,0.8,-6%,-1,nt
COC(=O)c1ccccc1NC(=O)Cn1nnc(-c2ccc3c(c2)OCO3)n1,-3%,13%,-2,-2.2,1%,6,-9.0%
Cc1cc(C)c(N(C(=O)c2csnn2)C(C(=O)NC(C)(C)C)c2ccncc2)c(C)c1 (stereo not given),12%,7%,nt,2.8,27%,10,0.0%
Cc1ccc(C)c(NC(=O)c2ccc(S(=O)(=O)C(F)F)cc2)c1,-21%,2%,3,15,8%[15.4 µM],-24,-1.5%
CCCCc1ncc(CN2CCC(n3nccc3NC(=O)c3ccccc3OC)CC2)[nH]1,1%,10%,-3,-0.6,0%,1,-0.5%
O=C(Nc1nnc(S(=O)(=O)N2CCCCCC2)s1)c1ccccc1Cl,29%,-12%,6,1.0,?,-11,-1.6%&-2.0%
O=C(O)CCN1CCc2ccccc21,-15%,-11%,-1,?,-77%[inhibitor],4,-1.3%
CN1CCN(S(=O)(=O)c2cccc(C(=O)N(C)CC(=O)Nc3ccc(F)c(F)c3F)c2)CC1,nt,-4%,-3,nt,10%[15.4 µM],10,-0.6%
C[C@@H](C(=O)Nc1cc(C(F)(F)F)ccc1N1CCOCC1)N1C(=O)C2CC=CCC2C1=O (stereo not given in full),nt,5%,3,nt,-11%,nt,nt
CC(C)[C@H](NS(=O)(=O)c1ccc2c(c1)OCCO2)C(=O)OCC(=O)Nc1ccccc1Cl,13%,6%,5,6.1,5%,0,-2.0%
CC(C)c1nnc(NC(=O)Cn2nc(-c3ccc4c(c3)OCCO4)ccc2=O)s1,2%,-4%,-5,-3.2,11%,-1,?
CC(C)OC(=O)CSc1nnc(-c2ccccc2)n1N,13%,-51%,2,1.2,-24%,1,-2.0%
Cc1nn(-c2nc3ccccc3[nH]2)c(=O)c2ccccc12,19%,-3%,-4,?,-1%,-7,nt
CC(C)(C)NC(=O)COC(=O)c1ccc(S(=O)(=O)N2CCCC2)cc1,-12%,-7%,5,-0.2,3%[15.4 µM],1,nt

High-throughput results: PubChem BioAssay, National Center for Advancing Translational Sciences (NCATS)
